CBX7 AlphaScr: inhibitors of human CBX7 binding to H3K27me3 peptide. AlphaScreen His6-CBX7 / biotin-H3K27me3 peptide binding; stronger effect = lower value. 66,000 tested, 1.1% active. normalised signal (fraction of DMSO) (no concentration beside the values). O95931; in the data active = normalised signal below about 0.5;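 note: 100 nL library stock added to about 20 µL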
Target sequence (O95931 whole entry, looked up): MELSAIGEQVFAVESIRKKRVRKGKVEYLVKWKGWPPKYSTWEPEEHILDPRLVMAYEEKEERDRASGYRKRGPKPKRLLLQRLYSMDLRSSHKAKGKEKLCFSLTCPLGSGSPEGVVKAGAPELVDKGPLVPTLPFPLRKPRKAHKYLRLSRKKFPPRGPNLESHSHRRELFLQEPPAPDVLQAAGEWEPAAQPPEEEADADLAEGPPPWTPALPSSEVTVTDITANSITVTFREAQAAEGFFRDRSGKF
CBX7 AlphaScr z-score: second read-out of CBX7 AlphaScr, no call of its own (marks repeat the call); z-score; measured here: z-score of CBX7 signal; some inactives read as strong as hits; reference of the scale not given here;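 same signal on another scale; lower means less binding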
An asterisk follows results filed as active. These rows are one share of the data; the hit share may differ from the screen's.

SMILES	CBX7 AlphaScr	CBX7 AlphaScr z-score
Cc1cc(N2CC(C)CC(C)C2)nc2ccc(NC(=O)CCC(=O)N3CCC(C)CC3)cc12 (configuration not stated)	1	1.4
CCOCCCNS(=O)(=O)c1ccc2c(c1)CCN2C(=O)CC	1.2	2.1
O=C1CN(C(=O)c2ccccc2)C(c2ccccc2)c2cc(F)ccc2N1 (configuration not stated)	0.97	-0.12
CCCCc1nc(OCC(=O)c2ccccc2)c(C#N)c2c1COC(C)(C)C2	0.9	-1.4
CCN(CC)S(=O)(=O)c1ccc(C(=O)Nc2nc(-c3ccccc3)c(C(C)=O)s2)cc1	0.97	-0.36
CCn1c(/C=C/c2ccc(Br)cc2)nc2ccccc2c1=O	1.1	1.1
COc1ccc(N2C(=O)CN=C2Nc2nc(C)cc(C)n2)cc1OC	0.91	-3.3
CCCCN(CCCNC(=O)Cn1nc(-c2ccccc2)ccc1=O)Cc1ccccc1	1	1
Cc1ccc2c(c1)-c1c(cnn1CC(=O)N(C)c1cc(Cl)ccc1C)CO2	1.1	2.2
COc1ccc(OC)c(CCNC(=O)CS(=O)(=O)Cc2nc(-c3ccccc3Cl)oc2C)c1	0.97	-0.79
CCOc1ccc(Nc2nc(-c3ccc(OC)c(F)c3)cs2)cc1	1	-0.04
O=C(CCCOc1ccc(Br)cc1)Nc1ncc(Cc2ccc(F)cc2)s1	1.1	3.5
C#CCN1CC(COc2ccc(Cl)cc2)OC1=O (configuration not stated)	0.96	-0.1
Cn1c(SCC(=O)Nc2cccc(F)c2)nnc1-c1c[nH]c2ccccc12	0.72	-2.7
Cc1nn(Cc2ccc(F)cc2)c(C)c1NC(=O)c1cc(-c2ccco2)on1	1.1	1.5
CCOc1ccc(OCC)c(NC(=O)c2ccc(CNc3c(N4CCOCC4)c(=O)c3=O)cc2)c1	0.89	-1.6
COc1ccc(Cn2c(-c3ccccc3)c(-c3ccccc3)c3c(=O)[nH]cnc32)cc1	0.87	-3.4
COc1ccc(-c2nc3sccn3c2Nc2c(C)cccc2C)cc1	0.85	-1.8
Cc1ccc(-c2nc(CSCC(=O)NC(C)c3ccccc3)c(C)o2)cc1 (configuration not stated)	0.94	-1.2
COc1cc(OC)cc(-c2nc3nc(C)c(CCC(=O)Nc4cc(C)ccc4C)c(C)n3n2)c1	1	0.5
CCN1C(=O)c2ccccc2Sc2ccc(C(=O)NC3CCCCCC3)cc21	0.99	-0.36
COCCNC(=O)CSc1nc(-c2ccc(C)cc2)[nH]c1-c1ccccc1	0.98	-0.27
CC(C)C(=O)Nc1cccc(-c2nc3ccccc3s2)c1	1.1	1
O=C(NCCc1ccccc1)c1ccc2c(c1)N(Cc1ccc(Cl)cc1)CCS2	1	1
CCOCCCNC(=O)C1C2C=CC3(CN(Cc4ccccc4Cl)C(=O)C13)O2 (configuration not stated)	1	1.7
CCCc1nc2nc(C)cc(Nc3ccc(Br)cc3)n2n1	0.97	-0.3
Cc1c(Cl)cccc1NC(=O)c1cc(-c2ccc(O)cc2)on1	0.98	-0.58
CCn1c(Cc2c(C)[nH]c3ccccc23)nnc1SCC(=O)Nc1ccc(Br)cc1	0.9	-2.9
CCOc1ccc(CNC(=O)Cn2nc(Cc3ccncc3)c3ccccc3c2=O)cc1	1.2	1.6
Cc1ccc2c(c1)C(c1ccccc1)N(C(=O)Cc1ccc(F)cc1)CC(=O)N2 (configuration not stated)	0.78	-0.3
CC(C)CCN1C(=O)Cn2cccc2C1C(=O)NC1CCCCC1C (configuration not stated)	1	0.53
CCc1ccc(NC(=O)CN(c2ccc(C)cc2)S(=O)(=O)c2c(C)noc2C)cc1	0.87	-1.1
Clc1ccc(C(c2ccccc2)N2CCN(CCCc3c[nH]c4ccccc34)CC2)cc1 (configuration not stated)	0.51	-3.5
CC(C(=O)NCCc1ccccc1)N1C(=O)c2ccccc2C1=O (configuration not stated)	0.92	-2.1
CCN(CC)c1cc(C)c2cc(NC(=O)c3ccccc3OC)ccc2n1	1.3	12
O=C1N(c2ccccc2)C2CS(=O)(=O)CC2N1c1ccc(Cl)c(Cl)c1 (configuration not stated)	1.1	2.1
COc1cccc(C2C(N3C(=O)c4ccccc4C3=O)C(=O)N2c2ccc(C)cc2C)c1 (configuration not stated)	1.1	2.6
CCOc1ccc(NC(=O)CC2C(=O)Nc3ccccc3N2C(=O)c2ccccc2)cc1 (configuration not stated)	1.5	2.2
COc1cccc(N2C(=O)C(CC(=O)Nc3ccc(F)cc3)N(Cc3ccc4c(c3)OCO4)C2=O)c1 (configuration not stated)	1	0.77
O=C(Nc1cccc(C(F)(F)F)c1)c1cc2c(s1)-c1ccccc1OC2	1.2	6.8
Cc1cccc(NC(=O)Nc2ccc(C#N)cc2)n1	0.97	-0.042
Cc1ccc(-c2nc3cccnc3nc2-c2ccc(C)cc2)cc1	0.56	-1.5
CCN1CCN(C(=O)C2CC(c3ccc(OC)cc3)=NO2)CC1 (configuration not stated)	1	0.66
CCOc1ccc(NC(=O)c2cc3c(n(-c4ccc(Cl)cc4)c2=O)CCCC3=O)cc1	1.2	2.5
Cc1ccccc1OCc1nc(C#N)c(NC(C)c2ccccc2)o1 (configuration not stated)	0.56	-5.6

Pulled one by one from above:
SMILES	CBX7 AlphaScr	CBX7 AlphaScr z-score
CCOc1ccc(NC(=O)CC2C(=O)Nc3ccccc3N2C(=O)c2ccccc2)cc1 (configuration not stated)	1.5	2.2
CCc1ccc(NC(=O)CN(c2ccc(C)cc2)S(=O)(=O)c2c(C)noc2C)cc1	0.87	-1.1
COc1cccc(C2C(N3C(=O)c4ccccc4C3=O)C(=O)N2c2ccc(C)cc2C)c1 (configuration not stated)	1.1	2.6
Cc1cccc(NC(=O)Nc2ccc(C#N)cc2)n1	0.97	-0.042

3 structures from above, sorted by SMILES length, rising.
SMILES	CBX7 AlphaScr	CBX7 AlphaScr z-score
O=C1N(c2ccccc2)C2CS(=O)(=O)CC2N1c1ccc(Cl)c(Cl)c1 (configuration not stated)	1.1	2.1
CCc1ccc(NC(=O)CN(c2ccc(C)cc2)S(=O)(=O)c2c(C)noc2C)cc1	0.87	-1.1
CCOc1ccc(NC(=O)c2cc3c(n(-c4ccc(Cl)cc4)c2=O)CCCC3=O)cc1	1.2	2.5

(continued)
SMILES	CBX7 AlphaScr	CBX7 AlphaScr z-score
Cc1cc(C)c2oc(-c3ccc(NC(=O)c4ccc5c(c4)OCCO5)cc3)nc2c1	1.1	1.1
Cc1ccc(C)c(N2CCN(CCCNC(=O)Cn3ncc4ccsc4c3=O)CC2)c1	0.95	-1.4
CCN(c1cccc(C)c1)S(=O)(=O)c1ccc2c(c1)CCN2C(=O)C1CCC1	1	0.36
Cc1[nH]c2ccc(OC(F)(F)F)cc2c1CCNC(=O)c1cccs1	0.82	-2.6
CCN(C(=O)Cn1c(SCc2ccc(C)cc2)nc2ccncc21)c1cccc(C)c1	1.3	1.2
CC1CCN(C(=O)c2ccc3c(c2)N(Cc2ccccc2F)C(=O)c2ccccc2S3(=O)=O)CC1	0.93	-2.1
CCCCn1c(CCNC(=O)CCC)nc2ccccc21	1.1	1.5
Cc1ccc(Cn2ccc(NC(=O)c3cc(CC(C)C)on3)n2)cc1	1.3	1.3
CC(=O)Nc1ccc(S(=O)(=O)Nc2nc3c(s2)CCCC3)cc1	0.88	-0.14
COc1ccc(-c2nc(S(=O)(=O)c3ccc(Cl)cc3)c(NCc3ccccc3)o2)cc1	0.91	-0.12
Clc1cccc(-n2nnnc2C(c2ccc(Cl)cc2Cl)N2CCCCC2)c1 (configuration not stated)	0.86	-1.7
Cc1ccc(Nc2cc(C(=O)N3CCN(C)CC3)c3ccccc3n2)cc1C	1	0.71
O=C(C1CCCN(S(=O)(=O)c2cccs2)C1)N1CCN(c2ccc(F)cc2)CC1 (configuration not stated)	0.95	-2.1
Cc1ccc(OCC(=O)N(Cc2ccc(C(C)C)cc2)C2CCS(=O)(=O)C2)cc1 (configuration not stated)	0.88	-0.12
O=S(=O)(Nc1cc(C(F)(F)F)cc(C(F)(F)F)c1)c1cccc2cccnc12	1	0.73
COc1ccc(N2CCN(CCCNC(=O)Nc3ccc(C)c(C)c3)CC2)cc1	0.86	-3.7
Cc1cccc(N2CCN(c3ncnc4scc(-c5ccccc5)c34)CC2)n1	0.92	-2.7
CCC1CCCCN1C(=O)c1nn2c(c1Br)NC(c1cccs1)CC2C(F)(F)F (configuration not stated)	1.2	1.7
CCCCN(CC)S(=O)(=O)c1ccc2[nH]c(=O)cc(C(=O)NCCc3ccccc3)c2c1	1	-0.0032
COc1ccc(-c2noc(-c3cccc(F)c3)n2)cc1	1.3	2.4
CCC(C)NC(=O)c1nn2c(C(F)(F)F)cc(-c3ccc(C)cc3)nc2c1Cl (configuration not stated)	1.1	0.84
COc1cccc(C2C(N3C(=O)c4ccccc4C3=O)C(=O)N2c2ccc(Br)cc2)c1 (configuration not stated)	0.93	-2.5
CCCCN(CC)S(=O)(=O)c1ccc2[nH]c(=O)cc(C(=O)NCc3ccc(CC)cc3)c2c1	0.99	-0.2
CCOC(=O)c1cc(-c2ccccc2)n(CCC(=O)NCc2ccc(OC)cc2)c1C	0.97	-0.28
COc1ccc(OC)c(C2=NOC(C(=O)N3CCCC3)C2)c1 (configuration not stated)	1.1	2
N#Cc1nc(COc2ccc(F)cc2)oc1N1CCC(Cc2ccccc2)CC1	0.59	-7.4
Cc1ccc(S(=O)(=O)C2(C(=O)N3CCCCC3C)CC2)cc1 (configuration not stated)	1	0.39
COCCCNC(=O)CCn1c(=O)[nH]c2ccccc2c1=O	1.1	0.37
O=C(c1cc2nc(-c3ccc(F)cc3)cc(C(F)(F)F)n2n1)N1CCOCC1	1.1	2.1
Cc1c(CNCCCc2ccccc2)c(C(=O)O)c(C)n1Cc1ccccc1	0.99	-0.37

Copied from the list:
For CBX7 AlphaScr, `CCOc1ccc(Nc2nc(-c3ccc(OC)c(F)c3)cs2)cc1` has the entry 1
For CBX7 AlphaScr, `CCC1CCCCN1C(=O)c1nn2c(c1Br)NC(c1cccs1)CC2C(F)(F)F` (configuration not stated) has the entry 1.2

(list continues)
SMILES	CBX7 AlphaScr	CBX7 AlphaScr z-score
COc1cccc(/C=C/c2nc3ccccc3c(=O)n2-c2ccc(F)c(Cl)c2)c1OC	1	0.72
CCOC(=O)c1cc(-c2ccccc2)n(-c2cccc(C(=O)Nc3cccc(C)c3)c2)c1C	0.93	-1.3
COc1cccc(C2=NOC(C(=O)N3CCN(c4ccccc4)CC3)C2)c1OC (configuration not stated)	0.97	-1.1
CC(C)N(CCCNC(=O)C1CCN(C(=O)c2cc3sccc3n2C)CC1)Cc1ccccc1	0.93	-1.3
COc1ccc(OC)c(Nc2nc3nonc3nc2Nc2cccc(Cl)c2)c1	1	0.1
COc1ccc(OC)c(C2=NOC(C(=O)NC(C)C)C2)c1 (configuration not stated)	1	1.6
Cc1ccc(CNC(=O)C2=CCN(S(=O)(=O)c3ccc(F)cc3)CC2)cc1	1	1.1
CC(C)CCNC(=O)c1cc2c(s1)CS(=O)(=O)C2	0.99	-0.38
NC(=O)c1c(NC(=O)c2ccc(-c3ccccc3)cc2)sc2c1CCCC2	1.1	0.71
O=C(Cn1nc(Cc2cccnc2)c2ccccc2c1=O)Nc1ccc(Oc2ccccc2)cc1	0.93	-0.74
O=C(c1csc2c1CCCCC2)N1CCN(c2ccccc2)CC1	0.95	-1.7
CN(Cc1ccccc1)C(=O)c1ccc2c(c1)N(Cc1ccccc1F)C(=O)c1ccccc1S2=O (configuration not stated)	0.78	-5.9
Cc1nc2ccc(C(=O)NCCN(C)C)cc2nc1C	0.78	-2.9
O=C(Nc1cc(F)c(F)cc1Cl)NC(c1ccccc1)c1ccccc1	1.2	1.7
CC1(C)Cc2c(c(N3CCOCC3)nc3sc(C(=O)O)cc23)CO1	0.78	-2.2
O=C(C1CCCN(S(=O)(=O)c2cccs2)C1)N1CCN(c2ccccc2F)CC1 (configuration not stated)	1	1.1
Cc1cc(S(=O)(=O)Nc2cc(Br)c3oc4c(c3c2)C(=O)CCC4)ccc1Cl	0.97	-0.17
O=C(NC1CCCCCCC1)C1CCCN(c2nc3ccccc3o2)C1 (configuration not stated)	0.98	-0.75
Cc1ccc(CN2CCN(CC(=O)NCc3ccccn3)C2=O)cc1	1	0.65
COc1cccc(C(=O)Nc2c3c(nn2-c2ccc(C)cc2C)CSC3)c1	0.93	-1.7
CCC(Oc1ccc2c(c1)C(=O)CC(C)(C)O2)C(=O)NCc1ccccc1 (configuration not stated)	0.87	-1.5
NC(=O)C1CCN(C2CC(=O)N(c3ccccc3)C2=O)CC1 (configuration not stated)	1	0.6
CC(C)N(CCCNC(=O)C1CCC(=O)N1Cc1ccc(F)cc1)Cc1ccccc1 (configuration not stated)	0.99	-0.15
COC(=O)c1ccc2nc(C)cc(Nc3ccc(C)cc3)c2c1	0.95	-1
COc1ccccc1N1CCN(C(=O)c2cnc(Nc3ccc(F)cc3)c3ccccc23)CC1	0.82	-2
COc1ccc(Nc2nc3ccccc3nc2NS(=O)(=O)c2ccc(C)cc2)c(OC)c1	0.94	-1.7
Cc1noc(C)c1S(=O)(=O)N1CCCC(C(=O)Nc2ccc(F)cc2F)C1 (configuration not stated)	1	0.39
O=C(CCCN1C(=O)CSc2ncccc21)NCCc1ccccc1	0.86	-2.1
CCCCN(CCCC)CCCNC(=O)CC1Oc2ccc(C)cc2NC1=O (configuration not stated)	1	1.4
CC(=O)NC(CCS(C)(=O)=O)C(=O)Nc1ccc2c(c1)OCO2 (configuration not stated)	1.1	4.9
